Screening data deposited in PubChem BioAssay by Broad Institute.
A1 apoptosis 2 = blocks A1, raising caspase activity. MEF A1-2A-BIM cells, caspase-Glo luminescence, 3 h; percent of clofoctol response, DMSO zero. caspase activation, % (no concentration beside the values). 24,000 tested, under 10 active; in the data active = caspase activation above about 5.9%;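 also: wells of about 30 µL received 50 nL stock; the first replicate is given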
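Test system – A1-2A-BIM-expressing MEF cells · Input – 2500 cells/well · Medium – RPMI-1640 growth medium with 10% FBS · Compound dosing – 50 nL pinned compound · Timing – 3 h compound exposure at 37 °C · Technique – Caspase-Glo luminescence (DEVD substrate) · Evaluation – Caspase-3/7 activity from luminescence increase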
An asterisk follows results filed as active. Not all compounds are listed. The share of hits here may be higher or lower than overall.

SMILES	A1 apoptosis 2
C[C@H](CO)N1C[C@H](C)[C@H](CN(C)S(=O)(=O)c2ccc3ccccc3c2)OCc2cnnn2CCCC1=O	0.0
C[C@H](CO)N1C[C@H](C)[C@@H](CN(C)S(=O)(=O)c2ccccc2)Oc2c(NC(=O)Nc3ccc(F)cc3)cccc2C1=O	-0.2
CC(C)NC(=O)N(C)C[C@@H]1Oc2ccc(NC(=O)CCC(F)(F)F)cc2CC(=O)N([C@@H](C)CO)C[C@H]1C	0.4
C[C@H](CO)N1C[C@H](C)[C@H](CN(C)S(=O)(=O)c2ccc(F)cc2)OCCCC[C@H](C)Oc2ccc(NC(=O)NC3CCCCC3)cc2C1=O	-0.3
C[C@@H]1CN([C@H](C)CO)C(=O)CCCn2cc(nn2)CO[C@H]1CN(C)C(=O)Nc1ccc(C(C)(C)C)cc1	-1.4
CC(C)NC(=O)Nc1ccc2c(c1)C(=O)N([C@@H](C)CO)C[C@H](C)[C@H](CN(C)S(=O)(=O)c1cccs1)OCCCC[C@H](C)O2	-0.7
COc1ccc(S(=O)(=O)N(C)C[C@@H]2OCCCC[C@H](C)Oc3ccc(NC(=O)CCCN(C)C)cc3C(=O)N([C@@H](C)CO)C[C@H]2C)cc1	-1.2
COc1ccc(NC(=O)Nc2ccc3c(c2)C(=O)N([C@H](C)CO)C[C@H](C)[C@@H](CN(C)S(=O)(=O)c2ccc(OC)cc2)O3)cc1	0.4
C[C@H](CO)N1C[C@H](C)[C@@H](CN(C)S(=O)(=O)c2ccc(Cl)cc2)Oc2c(NC(=O)CCCCCC(=O)Nc3ccccc3N)cccc2C1=O	0.6
COc1ccc(S(=O)(=O)N(C)C[C@@H]2Oc3ccc(NS(=O)(=O)c4ccc(F)cc4)cc3C(=O)N([C@H](C)CO)C[C@H]2C)cc1	-0.4
Cc1noc(C)c1S(=O)(=O)Nc1ccc2c(c1)C(=O)N([C@H](C)CO)C[C@@H](C)[C@@H](CN(C)Cc1ccncc1)OCCCC[C@@H](C)O2	1.4
C[C@@H]1CN([C@H](C)CO)C(=O)c2cccc(NC(=O)Nc3ccc(F)cc3)c2O[C@H]1CN(C)Cc1ccc(C(F)(F)F)cc1	0.6
Cc1noc(C)c1NC(=O)N(C)C[C@H]1Oc2ccc(NC(=O)Nc3ccc(C(F)(F)F)cc3)cc2CC(=O)N([C@H](C)CO)C[C@@H]1C	-0.1
C[C@@H]1CCCCO[C@H](CN(C)S(=O)(=O)c2ccc(F)cc2)[C@H](C)CN([C@H](C)CO)C(=O)c2cc(NC(=O)Nc3ccc(F)cc3)ccc2O1	-0.7
Cc1noc(C)c1NC(=O)Nc1cccc2c1O[C@@H](CN(C)Cc1ccncc1)[C@H](C)CN([C@@H](C)CO)C2=O	0.3
C[C@@H]1CN([C@@H](C)CO)C(=O)Cc2cc(NC(=O)CCN3CCOCC3)ccc2O[C@@H]1CN(C)Cc1ccc(-c2ccccc2)cc1	-1.2
C[C@H]1CN([C@@H](C)CO)C(=O)c2cc(NS(=O)(=O)c3cn(C)cn3)ccc2O[C@@H]1CN(C)C(=O)Nc1ccc(F)cc1	1.0
C[C@@H]1CN([C@H](C)CO)C(=O)c2cccc(NC(=O)NC3CCCCC3)c2O[C@@H]1CN(C)Cc1ccc(C(=O)O)cc1	0.5
COc1ccc(NC(=O)Nc2ccc3c(c2)CC(=O)N([C@@H](C)CO)C[C@H](C)[C@H](CN(C)C(=O)Nc2ccc(F)cc2)O3)cc1	0.8
CNC[C@@H]1Oc2c(NC(=O)c3cc(C)nn3C)cccc2C(=O)N([C@@H](C)CO)C[C@@H]1C	1.0
CC(C)NC(=O)N(C)C[C@H]1Oc2c(NC(=O)CCCCCC(=O)Nc3ccccc3N)cccc2C(=O)N([C@@H](C)CO)C[C@H]1C	-0.9
C[C@@H]1CN([C@H](C)CO)C(=O)c2cc(NS(=O)(=O)c3ccccc3)ccc2O[C@H]1CN(C)S(=O)(=O)c1cccs1	-0.3
C[C@@H]1CN([C@H](C)CO)C(=O)Cc2cc(NS(=O)(=O)c3ccccc3)ccc2O[C@H]1CN(C)S(=O)(=O)c1ccccc1	0.2
C[C@@H]1CN([C@H](C)CO)C(=O)c2cccc(NS(=O)(=O)c3ccccc3)c2O[C@H]1CN(C)C(=O)Nc1ccc(C(F)(F)F)cc1	0.6
Cc1ccc(S(=O)(=O)N(C)C[C@H]2Oc3c(cccc3N(C)C)C(=O)N([C@@H](C)CO)C[C@@H]2C)cc1	-1.0
O=C(N1CCCCC1)[C@]1(CCS(=O)(=O)c2ccccc2)N=C(c2ccc(OCCCO)cc2)O[C@@H]1c1ccccc1	-0.8
C[C@H]1CN([C@@H](C)CO)C(=O)c2cc(NC(=O)C3CC3)ccc2O[C@@H]1CN(C)Cc1ccccc1	-1.0
C[C@@H]1CCCCO[C@@H](CN(C)Cc2ccccc2)[C@H](C)CN([C@@H](C)CO)C(=O)c2cc(N(C)C)ccc2O1	0.4
O=C(C1=C[C@H](c2ccc(Br)cc2)C[C@H](OCCCCO)O1)N1CCN(Cc2ccccc2)CC1	-0.4
COc1ccc(S(=O)(=O)Nc2ccc3c(c2)C(=O)N([C@H](C)CO)C[C@@H](C)[C@@H](CN(C)S(=O)(=O)c2cn(C)cn2)O3)cc1	1.0
COc1ccc(CN(C)C[C@H]2OCCCC[C@@H](C)Oc3ccc(NS(=O)(=O)c4c(C)noc4C)cc3C(=O)N([C@@H](C)CO)C[C@H]2C)cc1	2.3
C[C@H](CO)N1C[C@H](C)[C@H](CN(C)S(=O)(=O)c2cn(C)cn2)OCCCC[C@H](C)Oc2ccc(NC(=O)Nc3ccc(C(F)(F)F)cc3)cc2C1=O	-0.2
C[C@@H]1CN([C@H](C)CO)C(=O)Cc2cc(NS(C)(=O)=O)ccc2O[C@@H]1CN(C)S(=O)(=O)c1ccccc1	-2.5
C[C@H](CO)N1C[C@H](C)[C@H](CN(C)Cc2ccc3c(c2)OCO3)OCCCC[C@H](C)Oc2ccc(NC(=O)CCC(F)(F)F)cc2C1=O	0.0
C[C@H](CO)N1C[C@H](C)[C@H](CN(C)S(=O)(=O)c2ccccc2)Oc2ccc(NC(=O)Nc3cccc4ccccc34)cc2C1=O	0.0
Cc1noc(C)c1NC(=O)Nc1ccc2c(c1)CC(=O)N([C@H](C)CO)C[C@H](C)[C@H](CN(C)S(=O)(=O)c1cn(C)cn1)O2	1.1
C[C@@H]1CN([C@@H](C)CO)C(=O)c2cccc(NC(=O)Nc3ccccc3)c2O[C@H]1CN(C)C	0.6
C[C@@H]1CN([C@@H](C)CO)C(=O)Cc2cc(NS(=O)(=O)c3ccc(F)cc3)ccc2O[C@@H]1CN(C)Cc1ccc(-c2ccccc2)cc1	-0.8
COc1ccc(C#Cc2cnc3c(c2)C(=O)N([C@H](C)CO)C[C@H](C)[C@H](CN(C)S(=O)(=O)c2cn(C)cn2)O3)cc1OC	0.1
C[C@H]1CN([C@@H](C)CO)C(=O)c2cc(NC(=O)Nc3ccc(C(F)(F)F)cc3)ccc2O[C@H]1CN(C)S(=O)(=O)c1ccccc1	0.3
COc1ccc(NC(=O)Nc2cccc3c2O[C@@H](CN(C)C(=O)Nc2cccc4ccccc24)[C@@H](C)CN([C@@H](C)CO)C3=O)cc1	-1.2
COc1ccc(NC(=O)Nc2ccc3c(c2)C(=O)N([C@@H](C)CO)C[C@H](C)[C@H](CN(C)S(=O)(=O)c2ccc(Cl)cc2)O3)cc1	1.7
C[C@H]1CN([C@@H](C)CO)C(=O)c2cccc(NC(=O)C3CCOCC3)c2O[C@@H]1CN(C)Cc1ccc(C(=O)O)cc1	0.6
C[C@@H]1CCCCO[C@@H](CN(C)C(=O)Nc2ccc(C(F)(F)F)cc2)[C@@H](C)CN([C@H](C)CO)C(=O)c2cc(NS(=O)(=O)c3ccc(F)cc3)ccc2O1	-0.5
Cc1ccc(S(=O)(=O)Nc2ccc3c(c2)CC(=O)N([C@H](C)CO)C[C@H](C)[C@@H](CN(C)C(=O)Nc2ccc(F)cc2)O3)cc1	-1.1
Cc1ccc(S(=O)(=O)Nc2cccc3c2O[C@H](CN(C)C(=O)Nc2ccc4c(c2)OCO4)[C@@H](C)CN([C@H](C)CO)C3=O)cc1	-0.2
C[C@@H]1CN([C@H](C)CO)C(=O)c2cccc(NS(=O)(=O)c3ccc(F)cc3)c2O[C@@H]1CN(C)C(=O)NC1CCCCC1	0.3
C[C@@H]1CCCCO[C@@H](CN(C)C(=O)Cc2ccccc2)[C@H](C)CN([C@@H](C)CO)C(=O)c2cc(NC(=O)Nc3ccccc3)ccc2O1	0.1
C[C@H](CO)N1C[C@H](C)[C@H](CN(C)C)Oc2ccc(NC(=O)CCN3CCOCC3)cc2CC1=O	-0.5
C[C@@H]1CN([C@@H](C)CO)C(=O)c2cccc(NS(=O)(=O)c3cn(C)cn3)c2O[C@H]1CN(C)C(=O)Nc1ccc(F)cc1	-0.3
Cc1noc(C)c1NC(=O)N(C)C[C@H]1Oc2c(NC(=O)C3CC3)cccc2C(=O)N([C@@H](C)CO)C[C@@H]1C	0.3
COc1ccc(CN(C)C[C@@H]2OCCCC[C@H](C)Oc3ccc(NC(=O)Nc4ccc(OC)cc4)cc3C(=O)N([C@@H](C)CO)C[C@@H]2C)cc1	-0.2
Cc1noc(C)c1NC(=O)N(C)C[C@@H]1OCCCC[C@@H](C)Oc2ccc(NC(=O)Nc3cccc4ccccc34)cc2C(=O)N([C@@H](C)CO)C[C@H]1C	0.7
COc1ccc(S(=O)(=O)Nc2ccc3c(c2)C(=O)N([C@@H](C)CO)C[C@@H](C)[C@H](CN(C)Cc2ccccc2)OCCCC[C@@H](C)O3)cc1	0.5
COc1ccc(NC(=O)N(C)C[C@@H]2Oc3c(NC(=O)Nc4ccc5c(c4)OCO5)cccc3C(=O)N([C@@H](C)CO)C[C@H]2C)cc1	0.2
COc1ccc(CN(C)C[C@H]2Oc3ccc(NC(=O)CCCCCC(=O)Nc4ccccc4N)cc3CC(=O)N([C@@H](C)CO)C[C@@H]2C)cc1	-0.8
C[C@H](CO)N1C[C@H](C)[C@@H](CN(C)Cc2ccncc2)OCCCC[C@H](C)Oc2ccc(NC(=O)Nc3cccc4ccccc34)cc2C1=O	2.3
C[C@@H]1CN([C@@H](C)CO)C(=O)c2cccc(NC(=O)c3ccc(-c4nccs4)cc3)c2O[C@@H]1CN(C)C(=O)NC1CCCCC1	0.7
C[C@@H]1CN([C@H](C)CO)C(=O)Cc2cc(NS(=O)(=O)c3ccc(Cl)cc3)ccc2O[C@@H]1CN(C)C(=O)Nc1ccc2c(c1)OCO2	1.1
COc1ccc(S(=O)(=O)N(C)C[C@@H]2Oc3ccc(NS(C)(=O)=O)cc3C(=O)N([C@H](C)CO)C[C@H]2C)cc1	0.7

A draw from above in order of SMILES length, rising:
SMILES	A1 apoptosis 2
C[C@H](CO)N1C[C@H](C)[C@H](CN(C)C)Oc2ccc(NC(=O)CCN3CCOCC3)cc2CC1=O	-0.5
Cc1noc(C)c1NC(=O)N(C)C[C@H]1Oc2c(NC(=O)C3CC3)cccc2C(=O)N([C@@H](C)CO)C[C@@H]1C	0.3
C[C@H]1CN([C@@H](C)CO)C(=O)c2cccc(NC(=O)C3CCOCC3)c2O[C@@H]1CN(C)Cc1ccc(C(=O)O)cc1	0.6
C[C@@H]1CN([C@@H](C)CO)C(=O)c2cccc(NS(=O)(=O)c3cn(C)cn3)c2O[C@H]1CN(C)C(=O)Nc1ccc(F)cc1	-0.3
COc1ccc(NC(=O)N(C)C[C@@H]2Oc3c(NC(=O)Nc4ccc5c(c4)OCO5)cccc3C(=O)N([C@@H](C)CO)C[C@H]2C)cc1	0.2
COc1ccc(NC(=O)Nc2ccc3c(c2)C(=O)N([C@@H](C)CO)C[C@H](C)[C@H](CN(C)S(=O)(=O)c2ccc(Cl)cc2)O3)cc1	1.7
C[C@@H]1CCCCO[C@@H](CN(C)C(=O)Cc2ccccc2)[C@H](C)CN([C@@H](C)CO)C(=O)c2cc(NC(=O)Nc3ccccc3)ccc2O1	0.1
COc1ccc(CN(C)C[C@@H]2OCCCC[C@H](C)Oc3ccc(NC(=O)Nc4ccc(OC)cc4)cc3C(=O)N([C@@H](C)CO)C[C@@H]2C)cc1	-0.2
COc1ccc(S(=O)(=O)Nc2ccc3c(c2)C(=O)N([C@@H](C)CO)C[C@@H](C)[C@H](CN(C)Cc2ccccc2)OCCCC[C@@H](C)O3)cc1	0.5
C[C@@H]1CCCCO[C@@H](CN(C)C(=O)Nc2ccc(C(F)(F)F)cc2)[C@@H](C)CN([C@H](C)CO)C(=O)c2cc(NS(=O)(=O)c3ccc(F)cc3)ccc2O1	-0.5

Further entries follow:
SMILES	A1 apoptosis 2
C[C@H](CO)N1C[C@H](C)[C@H](CN(C)S(=O)(=O)c2cn(C)cn2)Oc2ccc(NC(=O)C3CC3)cc2CC1=O	-0.2
CCO[C@H]1OC(C(=O)N2CCOCC2)=C[C@@H](c2ccc3c(c2)OCO3)[C@@H]1CCCO	0.4
COc1ccc(S(=O)(=O)N(C)C[C@@H]2Oc3ccc(NC(=O)Nc4ccc(C(F)(F)F)cc4)cc3CC(=O)N([C@@H](C)CO)C[C@@H]2C)cc1	-0.2
Cc1noc(C)c1S(=O)(=O)N(C)C[C@@H]1Oc2ccc(NS(C)(=O)=O)cc2C(=O)N([C@H](C)CO)C[C@@H]1C	-0.4
CC(C)NC(=O)Nc1ccc2c(c1)CC(=O)N([C@@H](C)CO)C[C@H](C)[C@H](CN(C)Cc1ccc(-c3ccccc3)cc1)O2	-0.5
C[C@@H]1CCCCO[C@H](CN(C)C(=O)CCCN(C)C)[C@@H](C)CN([C@H](C)CO)C(=O)c2cc(NC(=O)Nc3ccc(C(F)(F)F)cc3)ccc2O1	0.6
COc1ccc(S(=O)(=O)Nc2ccc3c(c2)CC(=O)N([C@@H](C)CO)C[C@@H](C)[C@H](CN(C)C(=O)Nc2cccc4ccccc24)O3)cc1	0.0
C[C@@H]1CN([C@H](C)CO)C(=O)Cc2cc(NC(=O)Nc3ccc(C(F)(F)F)cc3)ccc2O[C@@H]1CN(C)Cc1ccc2c(c1)OCO2	-0.1
C[C@H]1CN([C@@H](C)CO)C(=O)c2cc(NS(=O)(=O)c3cn(C)cn3)ccc2O[C@@H]1CN(C)C(=O)Nc1ccccc1	0.3
